# Vaccinia stage – blocks a specific stage of Vaccinia orthopoxvirus infection, primary screen, cell-based, single point; Vaccinia-infected cells, mCherry/Venus stage reporter fluorescence; hits give low values; some inactives read as strong as hits; actives 0.01% (n = 89,000); activity change (mCherry), % (no concentration beside the values);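 active = mCherry past -33% and 40 or more points under the early reporter, replicates agreeing; inconclusive = past -33% without that gap or agreement; tested in A549 cells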;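 note: scaled between vehicle wells and reference inhibitor wells; 23 nL library stock went into each well; one replicate is shown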
# Vaccinia stage Venus – further read-out of Vaccinia stage, marked with its call; activity change (Venus), %; measured here: Venus reporter, other viral stage;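 negative = less Venus signal; first of two replicates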
# * hit, by the source's call; ? = inconclusive; · = no result given.
# Values in the order: Vaccinia stage	Vaccinia stage Venus
CCCNC(=O)Nc1ccc2c(c1)OC[C@@H](C)N(Cc1ccncc1)C[C@H](C)[C@@H](OC)CN(C)C2=O
    4.0	-1.1
C[C@H](CO)N1C[C@H](C)[C@H](CN(C)C(=O)c2cccnc2)Oc2ncc(C3=CCCCC3)cc2C1=O
    10.1	9.7
COC(=O)[C@H]1[C@H](CO)[C@H]2Cn3c(ccc(-c4cccc(F)c4)c3=O)[C@@H]1N2Cc1ccccc1
    1.1	-0.4
CC(C)[C@@H]1COCn2nncc2CCCC(=O)N1
    25.4	17.2
CN1CCN(C(=O)C2=C[C@H](c3ccc(C(F)(F)F)cc3)C[C@H](OCc3ccc(CO)cc3)O2)CC1
    -19.3	-20.2
O=C(CN1CCOCC1)N1CC[C@H]2[C@H](CO)Nc3ccc(-c4ccc(F)cc4)cc3[C@H]21
    14.8	2.2
C[C@H]1CN([C@@H](C)CO)C(=O)Cc2cc(NC(=O)c3ccncc3)ccc2O[C@@H]1CN(C)CC1CCCCC1
    ?	·
CC(C)NC(=O)Nc1ccc2c(c1)CC(=O)N([C@@H](C)CO)C[C@H](C)[C@H](CN(C)C(=O)NC(C)C)O2
    -1.9	-2.1
C[C@H](CO)N1C[C@H](C)[C@@H](CN(C)C(=O)C2CCOCC2)Oc2cc(-c3ccc(F)cc3)ccc2S1(=O)=O
    -4.6	-6.0
C[C@@H]1CCCCO[C@H](CN(C)S(=O)(=O)c2ccc(F)cc2)[C@H](C)CN([C@@H](C)CO)C(=O)c2cc(NC(=O)Nc3cccc4ccccc34)ccc2O1
    13.0	6.5
CC(C)COC(=O)N(C)C[C@H]1OCc2cn(nn2)CCCC(=O)N([C@@H](C)CO)C[C@H]1C
    2.9	3.1
COc1ccc(CNC(=O)N(C)C[C@@H]2OCc3ccccc3-c3ccccc3C(=O)N([C@H](C)CO)C[C@H]2C)cc1
    1.2	12.1
C[C@@H]1CN([C@H](C)CO)C(=O)c2cc(NC(=O)CCC(F)(F)F)ccc2O[C@@H]1CN(C)S(=O)(=O)c1cn(C)cn1
    -1.7	-2.8
C[C@H](CO)N1C[C@H](C)[C@@H](CN(C)Cc2ccc(C(=O)O)cc2)Oc2ccc(NC(=O)Nc3ccc(C(F)(F)F)cc3)cc2C1=O
    1.6	7.2
C[C@@H]1CN([C@H](C)CO)C(=O)c2cc(NS(C)(=O)=O)ccc2O[C@H]1CN(C)C(=O)Nc1ccccc1
    11.3	3.8
CCCC(=O)Nc1ccc2c(c1)OC[C@@H](C)N(Cc1cccc(F)c1)C[C@H](C)[C@@H](OC)CN(C)C2=O
    -14.0	-11.0
C/C=C/c1ccc([C@H]2[C@@H](CO)N3CCCCN(S(=O)(=O)c4ccc(F)cc4)C[C@H]23)cc1
    ?	·
C/C=C/c1ccc([C@@H]2[C@H](CO)N3CCCCN(C(=O)Nc4ccc(OC)cc4)C[C@@H]23)cc1
    ?	·
C[C@H](CO)N1C[C@H](C)[C@H](CN(C)S(=O)(=O)c2ccc(Oc3ccccc3)cc2)OCc2cnnn2CCCC1=O
    -12.1	-12.3
C[C@H](CO)N1C[C@H](C)[C@H](CN(C)S(=O)(=O)c2ccc(Cl)cc2)Oc2ccc(NC(=O)Nc3ccc(C(F)(F)F)cc3)cc2CC1=O
    ?	·
O=C(C1CCCC1)N1CC[C@@H]2[C@H](CO)Nc3ccc(C#Cc4ccc(F)cc4)cc3[C@@H]21
    -14.1	-9.4
CCCN(C)C[C@@H]1OCCCC[C@@H](C)Oc2ccc(NS(=O)(=O)c3c(C)noc3C)cc2C(=O)N([C@H](C)CO)C[C@@H]1C
    2.7	-6.3
O=C(C[C@@H]1CC[C@@H](NC(=O)c2cccc(F)c2)[C@@H](CO)O1)NCc1ccc(Oc2ccccc2)cc1
    ?	·
O=C(C[C@@H]1CC[C@H]2[C@@H](COC[C@@H](O)CN2C(=O)c2ccccc2F)O1)NCc1ccc(Cl)cc1
    7.0	8.6
CN(C)C(=O)C[C@H]1CC[C@H]2[C@@H](COc3ccc(NC(=O)NCc4ccccc4)cc3C(=O)N2C)O1
    8.8	2.8
CC(C)NC(=O)Nc1cccc2c1O[C@H](CN(C)CC1CCCCC1)[C@H](C)CN([C@@H](C)CO)C2=O
    -0.6	4.6
Cc1ccc(S(=O)(=O)Nc2ccc3c(c2)C(=O)N([C@@H](C)CO)C[C@H](C)[C@H](CN(C)C(=O)Nc2ccc(F)cc2)OCCCC[C@@H](C)O3)cc1
    -11.3	-13.0
CC(C)NC(=O)Nc1ccc2c(c1)C(=O)N([C@@H](C)CO)C[C@@H](C)[C@@H](CN(C)S(=O)(=O)c1ccc(F)cc1)OCCCC[C@H](C)O2
    17.0	3.0
CN(C)C(=O)c1cccc(-c2ccccc2[C@@H]2[C@@H](C#N)N(C(=O)C3CCC3)[C@@H]2CO)c1
    0.9	-0.9
Cc1noc(C)c1S(=O)(=O)Nc1cccc2c1O[C@@H](CN(C)S(=O)(=O)c1ccc(Cl)cc1)[C@@H](C)CN([C@@H](C)CO)C2=O
    4.7	4.9

# Next section.
Molecule	Vaccinia stage	Vaccinia stage Venus
CCC(=O)N1CCCCN2[C@H](C1)[C@H](c1ccc(-c3cccc(C(=O)N(C)C)c3)cc1)[C@@H]2CO	35.4	16.6
COc1ccc(S(=O)(=O)N[C@H]2CC[C@@H](CCNC(=O)c3ccccc3F)O[C@H]2CO)cc1	-3.3	-2.4
CCCNC(=O)C[C@H]1CC[C@H]2[C@@H](COC[C@@H](O)CN2S(=O)(=O)c2ccc(Oc3ccccc3)cc2)O1	-15.7	-12.4
CCCC(=O)Nc1ccc2c(c1)OC[C@@H](C)N(CCC(F)(F)F)C[C@H](C)[C@@H](OC)CN(C)C2=O	4.3	-8.3
C[C@@H]1CN([C@@H](C)CO)C(=O)Cc2cc(NC(=O)c3ccncc3)ccc2O[C@H]1CN(C)Cc1ccc(C(=O)O)cc1	20.0	12.4
Cc1cccc(S(=O)(=O)N2C[C@@H](O)COC[C@H]3O[C@H](CC(=O)NCc4ccc5c(c4)OCO5)CC[C@@H]32)c1	-11.8	-7.2
COc1ccc(S(=O)(=O)N(C)C[C@H]2Oc3ccc(NS(=O)(=O)c4ccc(F)cc4)cc3CC(=O)N([C@@H](C)CO)C[C@@H]2C)cc1	-3.1	-5.3
COc1ccc(S(=O)(=O)N(C)C[C@@H]2Oc3ccc(NC(=O)CCCN(C)C)cc3C(=O)N([C@@H](C)CO)C[C@@H]2C)cc1	-3.3	-12.3
C[C@@H]1CN([C@@H](C)CO)S(=O)(=O)c2ccc(C#CCC3CCCC3)cc2O[C@H]1CN(C)C(=O)c1cnccn1	-14.7	-13.2
Cc1noc(C)c1NC(=O)N[C@H]1C=C[C@H](CC(=O)N2CCN(C)CC2)O[C@H]1CO	2.2	1.9
CNC[C@@H]1OCCCC[C@H](C)Oc2ccc(NC(=O)c3ccccc3)cc2C(=O)N([C@@H](C)CO)C[C@H]1C	1.7	19.4
C[C@@H](NC(=O)[C@@H]1[C@@H](CO)[C@@H]2Cn3c(ccc(C4=CCCCC4)c3=O)[C@@H]2N1C)c1ccccc1	4.4	-1.1
CC(C)NC(=O)Nc1ccc2c(c1)C(=O)N([C@@H](C)CO)C[C@@H](C)[C@@H](CN(C)CC1CCCCC1)OCCCC[C@H](C)O2	-6.7	-7.7
CN(C)C(=O)C[C@H]1CC[C@@H]2[C@@H](COc3ccc(NC(=O)C4CCCC4)cc3C(=O)N2C)O1	9.8	7.6
COc1ccccc1-c1ccc([C@@H]2[C@@H](C#N)N(C(=O)C3CCC3)[C@H]2CO)cc1	-27.1	-18.0

# Reformatted: results already given.
mol: CCC(=O)N1CCCCN2[C@H](C1)[C@H](c1ccc(-c3cccc(C(=O)N(C)C)c3)cc1)[C@@H]2CO
  Vaccinia stage: 35.4
  Vaccinia stage Venus: 16.6
mol: COc1ccc(S(=O)(=O)N[C@H]2CC[C@@H](CCNC(=O)c3ccccc3F)O[C@H]2CO)cc1
  Vaccinia stage: -3.3
  Vaccinia stage Venus: -2.4
mol: CCCNC(=O)C[C@H]1CC[C@H]2[C@@H](COC[C@@H](O)CN2S(=O)(=O)c2ccc(Oc3ccccc3)cc2)O1
  Vaccinia stage: -15.7
  Vaccinia stage Venus: -12.4
mol: CCCC(=O)Nc1ccc2c(c1)OC[C@@H](C)N(CCC(F)(F)F)C[C@H](C)[C@@H](OC)CN(C)C2=O
  Vaccinia stage: 4.3
  Vaccinia stage Venus: -8.3

# (cont.)
Molecule	Vaccinia stage	Vaccinia stage Venus
COc1ccc2c3c(n(C)c2c1)[C@H](CO)N(C(C)=O)CC31CN(C(=O)Nc2ccc(F)cc2)C1	3.5	0.1
COCC#Cc1cnc2c(c1)C(=O)N([C@@H](C)CO)C[C@@H](C)[C@H](CN(C)C(=O)Cc1ccccc1)O2	33.5	26.5
C[C@@H]1CN([C@H](C)CO)C(=O)c2cccc(NC(=O)C3CCCCC3)c2O[C@@H]1CN(C)Cc1ccccc1	-2.1	0.9
COc1ccc(CNC(=O)C[C@@H]2CC[C@@H](NC(=O)c3cccc(F)c3)[C@@H](CO)O2)cc1	-13.5	-11.5
COCC(=O)N1C[C@@H](C)[C@H](OC)CN(C)C(=O)c2ccc(NC(=O)c3ccc(F)cc3)cc2OC[C@@H]1C	-1.4	-2.0
C[C@@H]1CN([C@@H](C)CO)C(=O)CCCn2cc(nn2)CO[C@H]1CN(C)C(=O)Cc1ccccc1	7.1	0.5
COc1ccc(CN(C)C[C@H]2Oc3ccc(NC(=O)Cc4ccccc4)cc3C(=O)N([C@@H](C)CO)C[C@H]2C)cc1	-19.1	-9.0
COc1ccc(CN(C)C[C@H]2Oc3ccc(NS(=O)(=O)c4ccc(Cl)cc4)cc3CC(=O)N([C@H](C)CO)C[C@@H]2C)cc1	?	·
C[C@H]1CCCCO[C@@H](CN(C)C(=O)Cc2ccccc2)[C@@H](C)CN([C@@H](C)CO)C(=O)c2cc(NS(C)(=O)=O)ccc2O1	-2.7	0.3
CC1C=NC(S(=O)(=O)N2CC[C@@H]3[C@H](CO)N(C)c4ccc(-c5cccc(F)c5)cc4[C@@H]32)=N1 (stereo not given in full)	2.2	-0.1
C[C@@H]1CN([C@@H](C)CO)C(=O)c2cccc(NC(=O)C3CC3)c2O[C@@H]1CN(C)S(=O)(=O)c1cccs1	-7.6	-13.1
Cc1ccc(S(=O)(=O)N[C@H]2C=C[C@@H](CC(=O)NCc3ccccc3F)O[C@H]2CO)cc1	-15.2	-9.4
C[C@H]1CN([C@@H](C)CO)S(=O)(=O)c2ccc(C#CCN(C)C)cc2O[C@H]1CN(C)Cc1ccc(F)cc1	-25.5	-18.3
Cc1ccc(S(=O)(=O)N(C)C[C@@H]2OCCCC[C@@H](C)Oc3ccc(NS(=O)(=O)c4ccccc4)cc3C(=O)N([C@@H](C)CO)C[C@@H]2C)cc1	-9.6	-10.0
O=C(NCC1CC1)[C@@H]1[C@@H](CO)[C@@H]2Cn3c(ccc(/C=C/c4ccccc4)c3=O)[C@H]1N2C(=O)C1CCC1	6.8	3.0

# Going on with the list.
Molecule	Vaccinia stage	Vaccinia stage Venus
O=C(C[C@H]1CC[C@@H]2[C@H](COC[C@@H](O)CN2C(=O)Nc2ccc(Cl)c(Cl)c2)O1)NCc1ccncc1	-8.1	-2.6
C[C@H]1CN([C@@H](C)CO)C(=O)Cc2cc(NC(=O)Nc3ccc(C(F)(F)F)cc3)ccc2O[C@@H]1CN(C)CC1CC1	18.8	17.9
O=C(NC1CCC1)[C@H]1[C@H](CO)[C@H]2Cn3c(ccc(-c4ccccc4F)c3=O)[C@H]2N1Cc1ccncc1	-0.5	5.7
COc1cccc(CN2[C@H](CO)[C@H](c3ccccc3)C23CN(C(=O)C2CCC2)C3)c1	-4.9	-0.7
CCCN(C)C[C@@H]1OCc2cnnn2CCCC(=O)N([C@H](C)CO)C[C@@H]1C	-3.2	6.6
COc1ccc2c3c(n(C)c2c1)[C@H](CO)N(C(=O)c1cnccn1)CC31CN(C)C1	-1.1	-4.1
CCNC(=O)C[C@@H]1CC[C@H]2[C@@H](COc3ccc(NC(=O)Nc4ccccc4F)cc3C(=O)N2C)O1	3.8	-4.6
CCC(=O)N(C)C[C@H]1Oc2cc(C#CC3CC3)ccc2S(=O)(=O)N([C@@H](C)CO)C[C@@H]1C	4.9	3.0
COc1ccc(C#Cc2ccc([C@H]3[C@@H](CO)N4CCCCN(C(=O)c5ccncc5)C[C@H]34)cc2)cc1	?	·
C[C@@H]1CN([C@@H](C)CO)C(=O)c2cc(NS(=O)(=O)c3ccccc3)ccc2O[C@@H]1CN(C)CC1CC1	19.7	13.6
O=C(C[C@H]1CC[C@@H]2[C@H](COC[C@H](O)CN2Cc2nccs2)O1)NCc1ccc(F)cc1	6.0	2.4
C[C@@H]1CCCCO[C@H](CN(C)Cc2ccccc2)[C@H](C)CN([C@H](C)CO)C(=O)c2cc(NC(=O)Nc3ccc4c(c3)OCO4)ccc2O1	?	·
CNC[C@H]1Oc2ccc(NS(=O)(=O)c3ccc(C)cc3)cc2CC(=O)N([C@@H](C)CO)C[C@@H]1C	10.1	13.5
CCNC(=O)C[C@H]1CC[C@H]2[C@H](COc3ccc(NC(=O)Nc4cccc(Cl)c4)cc3C(=O)N2C)O1	9.3	2.4
C[C@H](CO)N1C[C@H](C)[C@H](CN(C)S(=O)(=O)c2cccc(F)c2)Oc2cc(C#CCN(C)C)ccc2S1(=O)=O	-11.3	-3.9
CO[C@@H]1CN(C)C(=O)c2ccc(NC(=O)C3CC3)cc2OC[C@@H](C)N(C(=O)c2ccncc2)C[C@H]1C	11.6	8.0
C[C@@H](NC(=O)C[C@H]1C[C@@H]2c3cc(N(C)C)ccc3O[C@@H]2[C@H](CO)O1)c1ccccc1	1.1	2.2
COc1ccc(S(=O)(=O)N(C)C[C@@H]2Oc3ccc(NC(=O)NC4CCCCC4)cc3C(=O)N([C@H](C)CO)C[C@H]2C)cc1	0.3	3.9

# Bioassay records (PubChem)

# An excerpt, so the mix of outcomes need not match the whole.
